Source: PubChem BioAssay
CtBP-E1A inh: CtBP/E1A binding inhibition. hit rate 0.49% among 340,000. AlphaScreen GST-E1A/His-CtBP binding, 1536-well; hits give low values; control for the full effect not named in the record. activity change, % (no concentration beside the values). AID 651724; in the data active means activity change below about -65%; inconclusive means about -30% to -65%; inactive means above about -30%; further: on the % scale 0 is the no-effect control and ±100 the full control effect; compound concentration not given in the record
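AlphaScreen with 125 nM GST-E1A and 125 nM His-CtBP (5X stocks) in Tris pH 8.0, 300 mM NaCl, BSA, Tween 20, TCEP. Compounds preincubated 2 h at 37 deg C, then glutathione donor/nickel acceptor beads added for 1 h at 37 deg C in dark.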
PINK1 modulator: changes PINK1 expression; PINK1 immunofluorescence, high-content cytometry, 24 h; Potency, µM (titrated, usually from 76.6 µM), inactives show top-dose activation (PINK1 increase), most hits filed as activators; hit rate 0.2% among 410,000; active = well fitted activation curve with a large enough effect; inconclusive = small, poorly fitted or top-dose-only effect; inactive = flat fitted curve, though single readings scatter; cell line not stated here;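 further: potency means the concentration at half of the fitted maximal effect; % of control where 0% means no effect; nearly all actives have a fitted effect of over 65% in size; a mitochondrial uncoupler was the plate control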
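Fluorescence from anti-PINK1 antibody, together with nuclear and cell stains, was scanned on a laser-scanning cytometer. Before staining, stable-line cells were incubated 24 hours with compounds at 5 concentrations; primary antibody 12 h at 10 degrees C.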
TRPML1 ag: agonists of human TRPML1 channel. hit rate 0.12% among 410,000. activation, % (test concentration not listed). TRPML1-expressing cells, Ca2+ dye fluorescence, FDSS; host cell line not named in the record; reference of the full effect not given here. Q9GZU1. AID 624414; in the data active = activation above about 50%; inconclusive = about 30% to 50%; inactive = below about 30%; further: 0% is about no effect; the text of the record puts the active cut at 80%
Target sequence (Q9GZU1 whole entry, looked up): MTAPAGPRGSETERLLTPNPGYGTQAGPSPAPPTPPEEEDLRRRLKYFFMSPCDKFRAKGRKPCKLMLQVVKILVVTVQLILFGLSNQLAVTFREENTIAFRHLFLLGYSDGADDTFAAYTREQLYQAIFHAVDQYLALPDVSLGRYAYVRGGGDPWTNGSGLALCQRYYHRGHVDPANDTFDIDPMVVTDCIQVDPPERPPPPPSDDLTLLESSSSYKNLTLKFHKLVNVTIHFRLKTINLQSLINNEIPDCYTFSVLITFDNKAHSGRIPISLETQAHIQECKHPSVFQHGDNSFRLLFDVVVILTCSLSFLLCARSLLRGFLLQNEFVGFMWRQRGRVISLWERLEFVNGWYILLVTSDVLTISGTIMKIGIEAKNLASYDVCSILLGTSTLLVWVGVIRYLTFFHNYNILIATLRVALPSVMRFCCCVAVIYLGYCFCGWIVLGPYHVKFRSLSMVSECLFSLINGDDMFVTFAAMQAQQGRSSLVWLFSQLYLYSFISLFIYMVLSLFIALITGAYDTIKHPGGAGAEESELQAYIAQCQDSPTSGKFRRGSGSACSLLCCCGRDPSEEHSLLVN
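Tet-induced TRPML1-DL cells, 1,500 per well, cultured overnight, were loaded with a no-wash Ca2+ dye for 45–90 min. Calcium fluorescence was recorded on the FDSS for 110 s after compound addition, before the EC80 agonist (4 uM 54-4) was added.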
Six1-Eya2 inh: blocks human Six1 binding to Eya2; AlphaScreen GST-Six1/His-Eya2 binding, biochemical; hits give low values; control for the full effect not named in the record; Q15475+O00167; activity change, % (test concentration not listed); hit rate 0.56% among 360,000; in the data active = activity change below about -65%; inconclusive = about -30% to -65%; inactive = above about -30%; further: on the % scale 0 is the no-effect control and ±100 the full control effect; compound concentration not given in the record
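AlphaScreen with GST-Six1 and His-Eya2 (5X mix: 250 nM and 500 nM), glutathione donor and nickel acceptor beads; buffer 50 mM Tris pH 8.0, 300 mM NaCl, 1 mM TCEP; 1 h at 37 C in the dark.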
D2 potentiator: positive allosteric modulators of human D2 dopamine receptor | AID 624464 | potentiation, % (concentration not given with the values) | hit rate 0.23% among 360,000 | P14416 | DiscoveRx D2 beta-arrestin cells, luminescence, 90 min; 100% = 57 uM dopamine signal; active = potentiation of 50% or more; inconclusive = 30% to 50%; inactive = 30% or less;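 further: compound concentration not given in the record; tested on top of an EC20 dose of dopamine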
Target sequence (P14416 whole entry, looked up): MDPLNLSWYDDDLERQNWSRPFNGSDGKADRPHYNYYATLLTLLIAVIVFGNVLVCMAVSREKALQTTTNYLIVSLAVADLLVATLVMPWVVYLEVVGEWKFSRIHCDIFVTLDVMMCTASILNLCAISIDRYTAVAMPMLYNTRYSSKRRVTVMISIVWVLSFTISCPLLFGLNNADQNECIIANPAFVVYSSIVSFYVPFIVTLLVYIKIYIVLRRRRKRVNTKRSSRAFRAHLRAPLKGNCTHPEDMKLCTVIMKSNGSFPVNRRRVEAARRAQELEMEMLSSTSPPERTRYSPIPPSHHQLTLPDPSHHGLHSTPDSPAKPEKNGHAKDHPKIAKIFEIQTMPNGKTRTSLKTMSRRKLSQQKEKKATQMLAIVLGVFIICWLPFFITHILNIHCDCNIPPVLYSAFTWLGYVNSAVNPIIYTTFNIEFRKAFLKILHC
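PathHunter D2 cells, attached overnight at 37 deg C, received compound in DMSO plus dopamine at EC20 (50 nM final) for 90 min at 37 deg C. Beta-arrestin recruitment was read as luminescence after 1 h with detection reagent at ambient temperature.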
D2 ag: human D2 receptor agonism in beta-arrestin assay | P14416 | DiscoveRx PathHunter D2 beta-arrestin, luminescence, 90 min; 100% = 57 uM dopamine signal | activation, % (no concentration beside the values) | hit rate 0.084% among 360,000 | AID 624465; in the data active = activation above about 40%; inconclusive = about 15% to 40%; inactive = below about 15%; further: compound concentration not given in the record; the text of the record calls up to 30% inactive
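Agonist mode: compounds alone added to overnight-plated D2 PathHunter cells for 90 min at 37 C, with 57 uM final dopamine (EC100) defining full response. Beta-arrestin recruitment detected by chemiluminescent reagent, read after 1 h at ambient temperature.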
* hit, by the source's call; ? = inconclusive; . = not tested or not shown; & = joins results of further samples; [ ] = another dose, or the depositor's remark. An unsorted share of the library; about 1.3% have a hit in one of these screens.

SMILES	CtBP-E1A inh	PINK1 modulator	TRPML1 ag	Six1-Eya2 inh	D2 potentiator	D2 ag
CN1CCCC(CN2c3ccccc3Sc3ccccc32)C1 (stereo not drawn)	-16	-0.5%	2.4	-26	-32	-0.5
O=C(Nc1ccc(Br)cc1)C1CC(O)CN1C(=O)Oc1ccccc1 (stereo not drawn)	-5	1.0%	-0.1	3	2	7.7
COc1ccc2nc(N(CCN(C)C)C(=O)/C=C/c3cccs3)sc2c1	6	8.8%	-0.6	-6	-19	-0.7
O=c1c2cnn(-c3ccccc3)c2nc(-c2cccs2)n1-c1ccc(Cl)cc1	0	-1.2%	-0.7	4	-21	-4.3
COC(=O)Nc1ccc(S(=O)(=O)N2CCC(Cc3ccccc3)CC2)cc1	-5	-1.0%	2.3	-9	-5	-0.2
CCCC(=O)C1=C(N(C)c2ccccc2)CC(C)(C)CC1=O	-2	0.1%	0.5	7	-3	-0.6
CCS(=O)c1ccccc1C(=O)OCC(=O)N1CCC(c2ccccc2)=N1 (stereo not drawn)	1	0.8%	0.4	2	0	10
CCNS(=O)(=O)c1ccc(CCC(=O)Nc2ccccc2C(=O)OC)cc1	2	3.0%	3.3	0	-14	-1.3
COc1ccc(NC(=O)CN2C(=O)COc3ccc(C)cc32)cc1	7	-0.2%	0.3	-6	1	-0.8
O=C(CN1C(=O)C2C3C=CC(C4CC34)C2C1=O)OCC(=O)c1ccccc1 (stereo not drawn)	10	0.2%	0.2	9	-10	-2.6
COc1ccc2nc(NC(=O)C3CCN(S(=O)(=O)c4cccnc4)CC3)sc2c1	-2	0.5%	-0.3	-20	-6	?
COc1ccc(Cl)cc1NC(=O)CN(C)C(C)C(=O)NC(=O)NC1CCCCC1 (stereo not drawn)	-3	0.5%	-0.1	2	-23	-2.6
COc1cc(/C=N/Nc2ncc(C(F)(F)F)cc2Cl)cc(OC)c1OC	.	4.6%	0.6	-1	-6	0.2
COc1ccc(CC(=S)NCCc2ccccc2)cc1	12	-1.3%	1.0	6	1	-2.6
Cc1ccc(N(CC(=O)NC2CCCCC2)C(=O)CNC(=O)c2ccco2)cc1C	-21	-0.6%	-0.8	1	-5	-6.1
O=C(NCC1CCCN1S(=O)(=O)c1cccs1)C(=O)Nc1ccc(F)cc1F (stereo not drawn)	-13	0.7%	0.0	0	-1	-0.1
Cc1ccccc1-n1c(SCc2cccc(F)c2)nc2[nH]ncc2c1=O	7	1.2%	0.1	-5	0	0.5
CC(=O)N1CCc2cc(S(=O)(=O)CCC(=O)Nc3ccc(Cl)cc3F)ccc21	5	-1.8%	0.0	0	-6	-0.2
CCOC(=O)c1cc2c(=O)n3ccccc3nc2n(Cc2ccco2)c1=NC(=O)c1ccccc1OC	5	4.0%&0.5%	1.7&2.1	0	5	-0.5
COc1cccc(N/C=C/C(=O)c2ccc(C)cc2)c1	.	-1.5%	-0.3	5	-25	-1.7
CCn1c(C)cc(C(=O)CSc2nnc(-c3ccco3)o2)c1C	-4	8.9%	0.6	0	-1	-2.8
Cc1ccn2c(CC(C)(C)C)c(-c3ccc(F)cc3)nc2c1	2	?	0.9	-7	1	-8.7
Cc1ccc(/C=C/C(=O)Nc2ccc([N+](=O)[O-])c(NC(=O)/C=C/c3ccc(C)o3)c2)o1	-13	6.9%	0.0	-19	-7	1.7
CCOc1ccc(C(=O)Nc2c3c(nn2-c2cccc(Cl)c2)CS(=O)C3)cc1 (stereo not drawn)	0	-1.4%[38.3 µM]	-0.4	-2	-7	-0.8
CC(C)[C@H](NS(=O)(=O)c1ccc2c(c1)OCCO2)C(=O)OCC(=O)Nc1cc(Cl)ccc1Cl	-2	0.8%	1.5	-1	-14	-1.2
CC(C)N(C(=O)CSc1nnnn1C1CCCC1)C(C)C	0	1.6%	-0.7	-1	8	-6.9
COc1ccc(/C=C/C(=O)c2cc(Cl)cc(Cl)c2O)c(OC)c1	5	0.9%	-0.2	3	-5	-1.2
CCC(OC(=O)c1nsc(Cl)c1Cl)C(=O)NCCc1ccccc1 (stereo not drawn)	8	2.0%	0.1	10	-5	8.1
CCCCCOc1ccccc1C(=O)NCCC(=O)O	49	1.5%[38.3 µM]	0.5	26	-1	1.0
Cc1ccc(C(=O)CC2(O)C(=O)Nc3ccccc32)s1 (stereo not drawn)	-11	.	-0.2	-13	-24	-0.5
O=C(Nc1nnc(C2=COCCO2)o1)c1ccc(F)cc1	?	1.3%	1.3	?	-16	-1.5
Cc1cc2oc(C(=O)N3CCN(CCc4ccccn4)CC3)c(C)c2cc1C	.	-1.0%	-1.3	-23	-17	1.2
Cc1ccc(-c2cc(-c3cccc(F)c3)n[nH]2)c(O)c1	7	9.1%	-0.6	3	22	1.9
Cc1cc(NC(=O)COC(=O)C2CC2)ccc1Br	-7	0.5%	1.8	7	-3	-3.9
Cc1ccccc1Oc1ccc2c(c1)[C@@H]1C[C@H](N(C)C(=O)c3cccnc3)[C@H]([C@H](C)O)C(=O)N1CC2	2	-0.1%	-0.2	-4	3	-7.9
Cc1ccc(S(=O)(=O)N2CCC(C(=O)OCC(=O)NCc3cccc(Cl)c3)CC2)cc1C	.	0.4%	-0.3	-2	-4	0.7
C[C@H]1CN([C@@H](C)CO)C(=O)CCCn2cc(nn2)CO[C@@H]1CN(C)C(=O)Nc1cccc(C(F)(F)F)c1	4	0.9%	-0.3	9	2	-0.3
CCOC(CNC(=O)C1CCN(S(=O)(=O)c2ccc3nc4c(c(C(=O)O)c3c2)CCCCC4)CC1)OCC	.	0.4%	4.3	4	-8	-2.0
CCN(CC)P(=O)(Nc1ccc(Br)cc1)c1c(C)nn(CCC#N)c1NC(=O)c1ccc(Cl)cc1 (stereo not drawn)	2	1.8%	-0.3	-5	-8	-2.8
CCCOc1ccc2c(C)c(CC(=O)OC)c(=O)oc2c1	7	-1.4%	0.6	1	-15	-2.4
Cc1ccc(C(=O)NC(=S)Nc2nc(-c3cccc([N+](=O)[O-])c3)cs2)c(Cl)c1	-9	-1.1%	0.2	16	-3	-3.5
Cc1c(NC(=O)c2ccccc2)c(=O)n(-c2ccccc2)n1C	11	-3.1%	-0.8	-2	6	-0.2
Cc1ccc(/C=N/NC(=O)c2ccc3nc[nH]c3c2)o1	-30	-0.7%	0.9	-14	-2	5.3
Cc1[nH]c(C)c(S(=O)(=O)N2CCN(c3cccc(C(F)(F)F)c3)CC2)c1C(=O)N1CCCC1	0	3.4%	-1.0	-8	-14	-5.1
Cc1cccc2cc3c(N)c(C(=O)N4CCCc5ccccc54)sc3nc12	-6	9.8%	9.1	-1	-9	-5.9
CCOC(=O)C1=C(CSc2nc(-c3ccncc3)ccc2C#N)OC(N)=C(C#N)C1c1cccnc1 (stereo not drawn)	-21	-0.1%	1.8	-19	20	2.2
CCOC(=O)N1CCN(S(=O)(=O)c2cc(Br)cc3c2N(C(=O)CC)CC3)CC1	-1	5.3%	-0.7	0	-1	0.9
CCC(Sc1nc2cc3c(cc2c(=O)n1Cc1ccco1)OCO3)C(=O)Nc1ccccc1OC (stereo not drawn)	-12	.	0.2	-12	-4	-3.0
CCCCn1nnnc1C1(C)CCC(=O)N1c1ccc(N2CCOCC2)cc1 (stereo not drawn)	-2	1.5%	-0.2	1	.	.
Cc1cccc(C)c1NC(=O)NS(=O)(=O)c1ccccc1	3	1.8%	-0.7	-7	-10	0.8
CCOC(=O)C1(CCOC)CCCCC1=O (stereo not drawn)	1	0.3%	0.4	4	-9	-4.8
CCC(C(=O)OCC(=O)Nc1cccc(C(C)=O)c1)c1ccccc1 (stereo not drawn)	-7	0.4%	0.7	8	-1	-1.1
Cc1nc(Cc2nnc(SCC(=O)Nc3c(C)cccc3C)o2)cs1	-15	-3.8%	0.4	-1	8	-0.9
Cc1cc(C(C)(C)C)ccc1OCCn1ccnc1	25	-1.7%	2.2	7	-12	-0.9
COc1ccc(C(N)=O)cc1NC(=O)CC(O)(C(F)(F)F)C(F)(F)F	6	0.1%[38.3 µM]	-0.7	-2	-4	-3.3
Cc1ccc(OCc2n[nH]c(=S)n2-c2ccc(Cl)cc2)cc1	-7	1.3%	3.7	-6	-23	-0.4
CC(=O)c1ccc(NC(=O)CSc2nc3[nH]ncc3c(=O)[nH]2)cc1	4	?	-0.4	-3	-13	2.9
CCN(CC)C(=O)c1cccc(-c2csc(C(C)(O)c3ccccc3)n2)c1 (stereo not drawn)	4	-0.6%	-1.0	3	-3	9.9
CCN(CC)C(=O)Oc1ccccc1NC(C)=O	0	-4.6%[38.3 µM]	-0.8	4	-1	-1.0
O=C(CN1CCN(C(=O)c2cccc(-n3cnnn3)c2)CC1)Nc1ccccc1Cl	-3	1.3%	0.6	3	-2	-2.3

Later entries.
SMILES	CtBP-E1A inh	PINK1 modulator	TRPML1 ag	Six1-Eya2 inh	D2 potentiator	D2 ag
O=C(Cn1cc[n+](Cc2ccccc2)c1)c1ccc([N+](=O)[O-])cc1	0	2.3%	0.7	-9	0	-3.9
COc1ccc2[nH]c(C(=O)N3CCC(Cc4ccccc4)CC3)cc2c1	1	4.7%	-1.6	2	-5	1.9
COc1ccc(C(=O)NCC(=O)OCc2c(Cl)cccc2Cl)cc1OC	12	1.7%	3.0	-9	0	1.0
O=C1CCCN1CC1CCN(Cc2nc(CC3CC3)no2)CC1	-2	0.4%	-0.2	-3	-5	-2.3
COCCCNC(=O)CC1C[C@H](C(=O)N2CCCCC2)[C@@]2(C)c3[nH]c4ccccc4c3CCN2C1=O (stereo partly drawn)	4	1.0%	-0.4	0	.	-0.2
CCOC(=O)c1c(N)sc(C(O)(C(F)(F)F)C(F)(F)F)c1-c1ccc(Cl)cc1	-2	14%[38.3 µM]	1.1	0	-8	-0.1
CC(=O)Nc1ccc(SCC(=O)Nc2cc(C(C)(C)C)nn2-c2ccccc2)cc1	-19	0.1%	0.4	-19	0	-6.3
O=C(c1ccncc1)N1CCN(c2cccc(C(F)(F)F)c2)CC1	5	-2.3%	0.1	8	3	-2.5
CCC1S/C(=N/N=C/c2ccco2)NC1=O (stereo not drawn)	-8	4.4%	2.4	3	6	-1.1
Cn1nccc1C(=O)OCC(=O)Nc1cccc(Cl)c1	24	-1.3%	-0.3	-1	-10	-5.5
Cn1ncc2c(NCCc3ccccc3)nc(Cl)nc21	-1	-1.5%	0.0	-10	-20	0.4

Copied from the list:
CC(=O)Nc1ccc(SCC(=O)Nc2cc(C(C)(C)C)nn2-c2ccccc2)cc1 in D2 potentiator = 0
O=C1CCCN1CC1CCN(Cc2nc(CC3CC3)no2)CC1 in PINK1 modulator = 0.4%
O=C(Cn1cc[n+](Cc2ccccc2)c1)c1ccc([N+](=O)[O-])cc1 in CtBP-E1A inh = 0

Part of the list above in another layout:
canonical_smiles,CtBP-E1A inh,PINK1 modulator,TRPML1 ag,Six1-Eya2 inh,D2 potentiator,D2 ag
COCCCNC(=O)CC1C[C@H](C(=O)N2CCCCC2)[C@@]2(C)c3[nH]c4ccccc4c3CCN2C1=O (stereo partly drawn),4,1.0%,-0.4,0,.,-0.2
O=C1CCCN1CC1CCN(Cc2nc(CC3CC3)no2)CC1,-2,0.4%,-0.2,-3,-5,-2.3
